# PINK1 modulator: changes PINK1 expression; PINK1 immunofluorescence, high-content cytometry, 24 h; Potency, µM (top dose mostly 76.6 µM), inactives show top-dose activation (PINK1 increase), actives largely listed as activators; actives 0.2% (n = 410,000); AID 624263; active = well fitted activation curve with a large enough effect; inconclusive = small, poorly fitted or top-dose-only effect; inactive = flat fitted curve, though single readings scatter; cell line not stated here;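 also: potency is read from the fitted curve at half-maximal effect; % of control where 0% means no effect; nearly all actives have a fitted effect of over 65% in size; a mitochondrial uncoupler was the plate control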
#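 PINK1 protein, normally rapidly degraded, was detected by immunofluorescence after 24 hour compound treatment of a stable cell line. Titration data (5 concentrations) came from laser-scanning cytometry, with CCCP-treated wells as controls.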
# D2 ag: agonists of human D2 dopamine receptor (beta-arrestin). P14416. DiscoveRx PathHunter D2 beta-arrestin, luminescence, 90 min; 100% = 57 uM dopamine signal. activation, % (test concentration not listed). actives 0.084% (n = 360,000). AID 624465; in the data active = activation above about 40%; inconclusive = about 15% to 40%; inactive = below about 15%; also: compound concentration not given in the record; the text of the record calls up to 30% inactive
# Target sequence (P14416 whole entry, looked up): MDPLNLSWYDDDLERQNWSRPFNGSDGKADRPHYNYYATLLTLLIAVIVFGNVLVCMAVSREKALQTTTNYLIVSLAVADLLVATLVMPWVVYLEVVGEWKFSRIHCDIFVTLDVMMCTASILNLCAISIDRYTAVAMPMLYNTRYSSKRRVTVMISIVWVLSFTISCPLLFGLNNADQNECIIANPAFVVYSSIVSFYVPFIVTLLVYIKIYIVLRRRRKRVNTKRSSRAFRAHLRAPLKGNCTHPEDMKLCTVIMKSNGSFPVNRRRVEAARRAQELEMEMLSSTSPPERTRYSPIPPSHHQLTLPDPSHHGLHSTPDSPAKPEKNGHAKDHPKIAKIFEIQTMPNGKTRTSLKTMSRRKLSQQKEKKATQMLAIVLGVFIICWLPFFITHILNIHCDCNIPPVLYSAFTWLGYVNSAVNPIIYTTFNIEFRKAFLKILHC
#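 Agonist mode: compounds alone added to overnight-plated D2 PathHunter cells for 90 min at 37 C, with 57 uM final dopamine (EC100) defining full response. Beta-arrestin recruitment detected by chemiluminescent reagent, read after 1 h at ambient temperature.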
# Sfp PPTase inh: inhibitors of Bacillus subtilis Sfp phosphopantetheinyl transferase. Q9F4F7. Biochemical Sfp PPTase activity, qHTS. Potency, µM, for the others: max response, negative = inhibition, hits mostly inhibitors. actives 3.5% (n = 310,000); active = well fitted inhibition curve with a large enough effect; inconclusive = small, poorly fitted or top-dose-only effect, or another doubt; inactive = no such curve, though single readings can be large or run the other way;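 also: the enzyme is Sfp with the accession as filed and its product quenches rhodamine fluorescence; potency is read from the fitted curve at half-maximal effect; 0% = enzyme reaction without inhibitor and -100% = no enzyme wells; top concentration of the series not given in the record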
#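 Buffer: 50 mM Hepes-Na pH 7.6, 10 mM MgCl2, 0.01% Nonidet P-40, 0.01% BSA. Enzyme 15 nM, pre-exposed to compound 15 min; substrates then added and fluorescence change tracked over 30 min.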
# gsp agonist: agonists of gsp mutant (McCune-Albright syndrome); gsp mutant cells, cAMP HTRF, 30 min; control for the full effect not named in the record; Potency, µM (series often up to 76.9 µM), for inactives: at the highest dose activation (cAMP increase), actives largely listed as activators; actives 0.13% (n = 340,000); AID 624287; active = well fitted activation curve with a large enough effect; inconclusive = small, poorly fitted or top-dose-only effect, or another doubt; inactive = no such curve, though single readings can be large or run the other way; cell line not stated here;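 also: phosphodiesterase inhibitor Ro 20-1724 added with compounds to block cAMP breakdown; potency is read from the fitted curve at half-maximal effect; nearly all actives have a fitted effect of over 60% in size; about a fifth of the inactives were tested at one dose only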
#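 Cells stably selected in G418 were plated at 2000/well, grown 16-24 hr, then given compounds in DMSO with the PDE inhibitor […] (300 uM solution added) for 30 min at 37C; cAMP was read by HTRF.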
# gsp antagonist: antagonizes gsp, the McCune-Albright syndrome mutation; gsp-mutant cells, cAMP HTRF, 30 min; control for the full effect not named in the record; Potency, µM (top dose mostly 76.9 µM), inactives show at the top dose activity change, negative = inhibition, actives largely listed as inhibitors; actives 0.4% (n = 340,000); AID 624288; active = falling curve of any shape with a large fitted effect; inconclusive = falling curve, mostly with a smaller effect; inactive = flat or rising curve; cell line not stated here;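 also: intracellular cAMP measured with PDE inhibitor Ro 20-1724 present during compound exposure; potency is read from the fitted curve at half-maximal effect; % is scaled to controls: 0 for no effect and ±100 for the full control effect; nearly all actives have a fitted effect of over 65% in size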
#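 HTRF cAMP measurement after 30 min RT detection following 30 min, 37C compound treatment alongside […] (added as 300 uM solution) in G418-selected cells seeded at 2000/well and grown 16–24 h.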
# Menin MLL FP FL: menin-MLL binding inhibition, fluorescein peptide. Fluorescence polarization, fluorescein-MLL peptide displacement from menin. FP activity change, % at 61.4 µM. 290,000 tested, under 10 active; inconclusive = falling polarisation curve, or a change in total fluorescence; inactive = total fluorescence flat and polarisation flat or rising; no compound was filed as active; the % refers to the polarisation; negative = inhibition;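 also: % of control where 0% means no effect; inhibitors lower the polarisation; unlabelled MLL peptide was the positive control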
# ClpP mod: qHTS Assay for Activators of ClpP; ATP-dependent Clp protease proteolytic subunit (Bacillus subtilis (strain 168)), P80244; AID 651965, 2013; purified B. subtilis ClpP, FRET peptide cleavage, 20 min; actives 1.9% (n = 340,000); Potency, µM (titrated, usually from 57.5 µM), inactives show at the top dose activity change, negative = active; active = well fitted falling curve with a large enough effect; inconclusive = small, poorly fitted or top-dose-only effect; inactive = no such curve, though single readings can be large or run the other way; also: potency is read from the fitted curve at half-maximal effect; the source files actives as falling curves though it sought activators and does not explain the sign; nearly all actives have a fitted effect of over 65% in size; many hits overshoot -100%
# Target sequence (P80244 whole entry, looked up): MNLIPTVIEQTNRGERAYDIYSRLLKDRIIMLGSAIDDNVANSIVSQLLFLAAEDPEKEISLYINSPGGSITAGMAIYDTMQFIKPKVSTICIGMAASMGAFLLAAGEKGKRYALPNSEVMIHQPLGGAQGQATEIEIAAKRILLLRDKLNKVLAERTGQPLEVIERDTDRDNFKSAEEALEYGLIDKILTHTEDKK
#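 Purified B. subtilis ClpP, 10 microg/mL final in Tris/HCl pH8 with KCl, BSA, glycerol and Tween-20, cleaved an Abz/nitrotyrosine-quenched decapeptide. Fluorescence (ex 320, em 430) was read at 0 and 20 min at room temperature. Delta was normalized to 5.8 microM ADEP and DMSO/no-enzyme controls.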
# An asterisk follows results filed as active; ? = inconclusive; / = not tested or not shown; & = joins results of further samples; [ ] = dose if it differs, or a comment.
SMILES,PINK1 modulator,D2 ag,Sfp PPTase inh,gsp agonist,gsp antagonist,Menin MLL FP FL,ClpP mod
O=C(CN1C(=O)NC2(CCCCC2)C1=O)NCCc1ccccc1,3.1%,-0.5,/,-23.6%,2.8%,/,-1.8%
CCC(Oc1ccccc1)C(=O)Nc1ncc([N+](=O)[O-])s1 (stereo not drawn),3.8%,3.5,-11.6%,10.2%,-18.6%,-7.0,2.1%
CN(C(=O)c1ccccn1)c1nnc(-c2cnccn2)s1,-0.1%,2.4,-9.3%,?,5.8%,9.6,?
CC12COC3(C(=O)Nc4ccc(Cl)cn4)CC1CCC32C (stereo not drawn),-0.7%,-1.2,6.7%,5.0%,5.0%,-3.7,-0.7%
Cc1ccc(-n2ccnc(SCC(=O)NC3CCCC3)c2=O)cc1Cl,2.1%,1.1,/,-4.1%[15.4 µM],-8.0%,/,-26.2%
COc1ccc(N2CCN(C(=O)COc3ncnc4ccccc34)CC2)cc1,-0.6%,1.0,-7.5%,-14.1%,-16.2%,2.3,/
COc1cccc(-c2nc(CS(=O)CC(=O)NC3CCCCC3)c(C)o2)c1 (stereo not drawn),2.1%,-2.1,-1.0%,-51.4%[inhibitor],8.2%,0.2,-16.6%
COC(=O)c1ccc(SCC(=O)NCc2ccccc2)c([N+](=O)[O-])c1,5.8%,2.3,13.7%,-45.8%[inhibitor],-16.3%,8.0,/
Fc1ccccc1-c1nc(NCC2CC2)nc2ccsc12,3.9%,-2.9,/,/,/,/,3.9%
COc1cccc(C(=O)NC2CCSC2=O)c1 (stereo not drawn),0.4%[38.3 µM],0.5,-5.6%,-20.0%,0.2%,9.6,-1.4%
CN1CCN(NC(=O)c2cccc(C(F)(F)F)c2)CC1,3.6%,-4.6,14.7%,-15.5%[15.4 µM],7.7%,-2.5,/
CSc1nc(C)cc(OCCO)n1,-2.5%,-3.0,-7.5%,-7.0%,-9.3%,4.3,1.8%
Cc1cc(C)cc(N(CC(=O)N2CCN(c3ccccc3)CC2)S(=O)(=O)c2c(C)noc2C)c1,0.2%,1.2,-7.5%,?,-5.3%,0.9,-0.4%
Cc1ccc2nc(-c3ccc(NC(=O)C4CCCO4)cc3)[nH]c2c1 (stereo not drawn),-1.5%[38.3 µM],1.1,8.3%,35.6%,-21.9%,4.8,31.6µM*
CN(c1ccccc1)S(=O)(=O)c1cccc(NC(=O)c2cccc(C#N)c2)c1,-0.6%,3.9,/,16.5%,-27.7%,/,-3.1%
O=S(=O)(c1ccccc1)N1CCN=C1SCc1ccccc1,-0.5%,0.8,7.9%,-17.3%[15.4 µM],0.1%,-0.1,/
O=C(Nc1cccc(-c2cccc(Cl)c2)c1)C1CCN(Cc2ccccn2)CC1,-0.8%,1.1,-28.4%,?,?,/,0.9%
CSc1ccccc1NC(=O)CNCCCN1CCOCC1,-0.2%,0.9,?,-32.5%[15.4 µM],10.5%,2.2,/
O=C(CCn1c(=O)c2sccc2n(CC(=O)NCc2ccco2)c1=O)NCc1ccccc1,1.1%[38.3 µM],-2.1,-26.8%,-9.3%,-1.0%,5.7,0.9%
CCCOc1ccc(C(C)=O)cc1Cc1c(O)nc(SC)[nH]c1=O,0.9%,-0.3,20.4%,?,-0.5%,8.3,/
CCOC(=O)c1[nH]c(Cc2[nH]c(C(=O)OCC)c(C)c2CCC(=O)OC)c(CCC(=O)OC)c1C,4.7%,-0.9,56.2µM*,-10.6%,-14.4%,1.4,-0.5%
COc1cc(OC)c2ccc(=O)oc2c1C(CCN1CCN(c2ccccc2)CC1)c1ccc(N(C)C)cc1 (stereo not drawn),-0.2%,2.1,13.6%&-14.7%,15.2%,6.3%,2.9&1.9,-3.1%
CCCn1c(=O)c(C(=O)NNC(=O)c2ccccc2Cl)c(O)c2ccccc21,2.8%,-0.6,7.9%,13.5%[15.4 µM],-21.9%,0.7,-1.2%
COC(=O)COC(=O)c1ccc(-n2nnnc2SC)cc1,-1.9%,0.8,8.3%,-3.9%,2.0%,0.7,-1.0%
CC(C)NC(=O)N(C)C[C@H]1Oc2c(NS(=O)(=O)c3cccs3)cccc2C(=O)N([C@H](C)CO)C[C@@H]1C,0.7%,1.6,/,/,0.4%,/,-6.2%
COC(=O)C1=CNC=C(C(=O)OC)C1c1cccc2ccccc12,3.7%,1.0,8.4%,16.2%,-3.4%,0.7,/
Cc1ccc(CNC(=O)C2CCN(C(=O)c3cccc(Cl)c3)CC2)cc1,0.6%,-2.1,13.7%,?,-5.9%,?,1.5%
CC(C)c1onc(C(=O)NC2CCCCC2)c1[N+](=O)[O-],-1.0%,-1.6,-9.2%,-25.5%,-0.2%,-0.6,/
CCN(CC)CCNC(=O)NC1CCCCC1,-2.0%,-4.6,8.7%,-4.6%,3.8%,-5.1,0.8%
CCn1c(SCC(=O)NCC(=O)Nc2ccc(F)cc2)nnc1-c1cccs1,/,4.6,5.2%,0.4%,-8.0%,-2.3,-5.3%
Cc1ccc(NC(=O)COC(=O)/C(=C/c2cccs2)c2cccs2)cc1S(=O)(=O)N(C)C,4.8%,4.3,7.3%,20.2%,-15.9%,4.7,-5.7%
Nc1c(N(CCC2=CCCCC2)C(=O)c2ccccc2F)c(=O)[nH]c(=O)n1Cc1ccccc1,8.0%,-2.7,/,-21.9%,6.7%,/,-2.1%
CCc1ccccc1N(C(=O)c1snc(C(N)=O)c1N)C(C(=O)NCC1CCCO1)c1ccc(C)o1 (stereo not drawn),0.2%,4.8,1.8%,-0.8%[15.4 µM],-6.1%,-5.0,0.3%
C=CCn1c(N)cc(=O)nc1SCC(=O)N(c1ccccc1)c1ccccc1,1.0%,-3.9,-1.5%,5.1%[15.4 µM],/,2.6,/
COc1ccc(OC)c(NC2c3ncccc3C(=O)N2Cc2ccco2)c1 (stereo not drawn),-2.7%[38.3 µM],2.2,-7.2%,14.3%,-3.4%,5.0,3.2%
O=C(CNC(=O)c1ccc2c(c1)OCCO2)N/N=C/c1ccco1,2.9%,-1.7,2.3%,-21.9%[15.4 µM],5.2%,-1.4,2.7%
O=C(Nc1nc2c(s1)CCCC2)c1nn(Cc2ccccc2)c(=O)c2ccccc12,7.2%,-5.6,-3.8%,0.8%[15.4 µM],-6.6%,2.8,2.5%
CCS(=O)(=O)NCc1cn2c(C)csc2n1,-0.2%,-2.8,14.3%,?,-5.8%,2.1,-1.4%
COc1cccc(-c2cc(C(=O)NC3CCCCC3)no2)c1,3.4%,9.1,14.7%,?,-5.9%,2.7,/
COc1ccccc1NC(=O)C1(c2ccccc2)CCCC1,8.0%,-3.3,-3.0%,-68.7%[inhibitor],-3.0%,0.0,1.1%
CCc1noc(C)c1C(=O)Nc1nc2c(C)cc(C)cc2s1,3.3%,-1.1,/,-6.3%[15.4 µM],-8.7%,/,-19.2%
CCCCn1cc2c(c1-c1cccc(C)c1)c(=O)n(C)c(=O)n2C,0.3%,-3.0,?,-6.4%,3.6%,8.8,-23.1%
O=C(CSc1ncnc2ccccc12)c1cccs1,0.9%,-0.7,-64.2%,4.5%,-3.8%,0.5,/
Cc1c(C(=O)OCC(=O)NC2CCCCC2)oc2ccccc12,7.9%,3.5,/,35.5%,-3.5%,/,-6.1%
COc1ccccc1NC(=S)NNC(=O)c1ccncc1,0.7%,2.4,24.3%,-2.4%,-5.2%,-1.2,/
Oc1ccc2ccccc2c1CNn1cnnc1,/,1.5,-3.2%,-21.2%,6.5%,-2.1,?
O=c1[nH]nc(-c2ccc(F)cc2)cc1-c1ccccc1,-1.0%,-2.8,3.0%,-6.5%[15.4 µM],-12.3%,2.2,/
O=C(COC(=O)c1cccc(S(=O)(=O)N2CCCCCC2)c1)Nc1ccccc1,-0.9%,-3.1,/,-29.7%,3.1%,/,1.0%
O=C(NN1C(=O)C2C3C=CC(C4CC34)C2C1=O)c1cccc(Br)c1 (stereo not drawn),-0.3%,-3.6,5.7%,5.8%,0.4%,-0.5,-1.5%
COc1ccccc1NC(=O)CN1CCN(CC(=O)Nc2ccc(F)cc2F)CC1,3.8%,-0.2,3.5%,?,3.0%,1.9,/
COc1cc(NC(=O)CSc2nnc(-c3cc(C)on3)o2)cc(OC)c1,2.9%,1.7,1.2%,11.5%[15.4 µM],-9.9%,-7.2,1.7%
CCCCn1c(-c2ccc([N+](=O)[O-])cc2)n[nH]c1=S,-0.9%,-3.1,-8.0%,-1.2%,-0.5%,-0.2,-2.5%
NC(=O)COc1ccc(/C=N/NC(=O)C2CCCN2S(=O)(=O)c2ccc(Cl)cc2)cc1 (stereo not drawn),-0.5%,-1.6,13.6%,-8.6%,-12.9%,1.0,1.3%
O=C(CSc1ncnc2c1cnn2-c1ccc(F)cc1)NCC1CCCO1 (stereo not drawn),0.6%,-2.8,18.4%,-13.1%,-10.0%,/,0.7%
Clc1cccc(C2CCN(Cc3nc(COc4ccccc4)no3)C2)c1 (stereo not drawn),2.1%,1.4,-4.4%,-3.8%,-15.6%,0.1,/
N#CCOc1coc(CN2CCN(c3ccccc3)CC2)cc1=O,0.2%,-0.4,4.3%,-9.4%,-2.3%,/,-1.1%
O=C(O)c1cccc(NS(=O)(=O)c2ccc(Oc3ccc(S(=O)(=O)Nc4cccc(C(=O)O)c4)cc3)cc2)c1,0.0%,-4.2,/,13.3%,3.3%,/,/
CSc1nc(-c2ccco2)nn1S(C)(=O)=O,-0.2%,-2.4,6.5%,-26.7%,12.0%,-1.4,0.0%
Cc1ccc(Cc2c[nH]c(=S)s2)cc1,0.5%,9.5,?,-1.3%[15.4 µM],/,-2.3,/
CCOC(=O)N1CCC(n2c(SCC(=O)NCCC3=CCCCC3)nc3ccccc3c2=O)CC1,-1.3%[38.3 µM],-2.4,-11.8%,10.4%,-15.9%,0.6,-1.4%
O=[N+]([O-])c1ccc(Nc2ccccc2O)c2nonc12,5.6%,-8.8,-0.4%,-51.4%[inhibitor],-18.0%,?,0.0%
Cc1cccc(-n2c(O)c(C=NC3CCS(=O)(=O)C3)c3ccccc3c2=O)c1 (stereo not drawn),3.6%,-0.3,19.9%,-3.6%,-3.5%,4.1,-2.3%
O=C(N/N=C/c1cc2c(cc1Br)OCO2)c1cccnc1,-0.5%,-2.4,4.9%,-22.5%,13.1%,-0.4,-1.1%
